Source: PubChem (several laboratories)
HSV replic up: increases HSV replication in cells; AID 1956; maximum fold increase; 220,000 tested, 0.005% active; HSV replication augmentation in cells, fold increase;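 active = peak rise of 1.5-fold or more in the series; tested in PC3 cells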;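 also: first round at 10 µM; read as green reporter fluorescence; hits show the peak of a series up to 25 µM; 1 = signal of infected wells without compound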
RGS16-Gao HTS: regulators of human RGS16-Galphao interaction. O15492+P09471. bead-based flow cytometry RGS16-Galphao binding, fluorescence; actives lie on both sides. binding response (% of control), % at 10 µM. 220,000 tested, 0.38% active. AID 1441;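 active = below 25% or above 175%, edge rows of some plates excepted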;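 also: Galphao activated by GDP with aluminum fluoride before binding; 100% = wells without compound and 0% = beads without RGS; some results beyond the cut were filed as inactive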
HSV replic up primary fold: also measured in HSV replic up; calls as there; fold increase; compound at 10 µM; measured here: primary screen fold increase 10 uM; tested in PC3 cells;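 GFP signal in the first replicate; 1 = infected wells without compound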
The depositor's hits bear a star.

How did COc1cc2ncnc(Nc3cccc(Cl)c3)c2cc1OC do in these assays?
RGS16-Gao HTS: 98.6

Results for Oc1ccc(C2CNCCc3c2cc(O)c(O)c3Cl)cc1 (centres undefined) ?
HSV replic up: inactive; HSV replic up primary fold: 0.86

What do the screens show for `CC12CCC(=O)C=C1CCC1C2CCC2(C)C1CCC2(O)C(=O)CO` (centres undefined)?
HSV replic up: inactive; HSV replic up primary fold: 0.79

What do the screens show for `NC1CCN(c2nc3c(cc2F)c(=O)c(C(=O)O)cn3-c2ccc(F)cc2F)C1` (centres undefined)?
HSV replic up: inactive; HSV replic up primary fold: 0.69

How did NC(N)=O do in these assays?
HSV replic up: inactive; HSV replic up primary fold: 0.93

Results for Cc1ccc(=O)n(-c2ccccc2)c1 ?
HSV replic up: inactive; HSV replic up primary fold: 0.94

What do the screens show for `CCc1ccc(CCOc2ccc(CC3SC(=O)NC3=O)cc2)nc1` (centres undefined)?
HSV replic up: inactive; HSV replic up primary fold: 0.8

How did CCOC(=O)[C@H](CCc1ccccc1)N[C@@H](C)C(=O)N1Cc2ccccc2C[C@H]1C(=O)O do in these assays?
HSV replic up: inactive; HSV replic up primary fold: 0.64

Some of the compounds tested; rates above refer to the full screens.
